CapD inh: Bacillus anthracis CapD inhibitors, primary screen, biochemical, fluorescence intensity; z-score (concentration not given with the values); CapD gamma-glutamyltranspeptidase (Bacillus anthracis Ames Ancestor); 140,000 compounds, 0.23% hits; purified CapD enzyme, fluorescence intensity read-out; hits give low values; some hits fall short of the stated cut; AID 492967, 2010;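 active = z-score under -4 in either of two replicates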;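 note: stock transfer was 100 nL into about 40 µL; score is relative to mean and spread of the plate; one replicate is shown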
AID504770: growth inhibition of E. coli YBA685, primary screen, V. cholerae RctB inhibitors; E. coli YBA685 rctB-dependent plasmid, OD600 growth, 3 h; hits give low values; z-score (test concentration not listed); 130,000 compounds, 0.27% hits;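 active = z-score under -2 on both plates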;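 note: wells of about 30 µL received 100 nL stock; score is relative to mean and SD of the test wells; the first replicate is given; strong numbers were not always called active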
* marks the source's active call; other numbers are inactive results; · = no result given.

SMILES	CapD inh	AID504770
O=C(NCCc1ccccc1)C1CCN(c2ncc(-c3ccc(Cl)cc3)cn2)CC1	1.1	·
Cc1nc2ccc(S(=O)(=O)NCC(=O)NCc3ccccn3)cc2s1	-0.23	1.9
O=C1CC(Sc2ncccc2C(=O)O)C(=O)N1 (stereo not drawn)	·	-0.6
O=C(NC(Cc1c[nH]c2ccccc12)C(=O)O)/C(=C\c1ccc(F)cc1)NC(=O)c1ccccc1 (stereo not drawn)	0.47	·
NNC(=O)C1COc2ccccc2O1 (stereo not drawn)	-0.09	·
Cc1cccn2c(/C=N/OC(=O)C3CC3)c(-c3ccc(Cl)cc3)nc12	6.1	·
Cc1ccc(N2C(=O)CSC2c2ccccc2C(F)(F)F)cc1C (stereo not drawn)	0.61	-0.6
NS(=O)(=O)c1ccc(CCNC(=O)c2ccc3c(=O)n(CC4CCCO4)c(=S)[nH]c3c2)cc1 (stereo not drawn)	-0.24	·
CC1(C)CC(NC2CCC(C#N)(c3ccccc3)CC2)CC(C)(C)N1 (stereo not drawn)	·	0.45
Cc1cc(C)n(S(=O)(=O)c2ccc(-c3cc(C(F)(F)F)n(C)n3)s2)n1	-0.48	-0.35
N#CC1(C#N)C(c2ccc(Cl)cc2)C(C(=O)c2ccccc2)N2c3ccccc3C=CC21 (stereo not drawn)	6.5	·
COc1ccc(C2(c3ccc(OC(C)=O)cc3OC(C)=O)CC(c3ccccc3)NC(=S)N2)cc1 (stereo not drawn)	-0.47	·
COc1ccc(C2C(C(=O)OC3CCCC3)=C(C)NC3=C2C(=O)CC(c2cccs2)C3)cc1OC (stereo not drawn)	28	·
CN1C(=O)NC(=O)/C(=C\C=C\c2ccco2)C1=O	-0.49	-0.15
Cc1cc(N2CCN(c3ncccn3)CC2)nc2ccc(NC(=O)c3cccc(F)c3)cc12	2.1	-0.25
CC1C(c2cccs2)=[N+]([O-])C(C)(C(=O)c2ccc(F)cc2)N1O (stereo not drawn)	-1.3	-0.1
Cc1nc(-c2ccncc2)nc(NCCNc2ncccc2C(F)(F)F)c1Cl	0.35	1.3
Cc1ccc2c(c1)c1c(n2C)C(C(N)=O)CCC1 (stereo not drawn)	0.57	-0.5
O=C(CCc1c[nH]c2ccccc12)NCCc1cccc(C(F)(F)F)c1	-0.055	·
CCOC(=O)c1ccc(NC(=O)CSc2nccn2-c2ccc(OC)cc2)cc1	0.87	0.2

Single values from the list:
NS(=O)(=O)c1ccc(CCNC(=O)c2ccc3c(=O)n(CC4CCCO4)c(=S)[nH]c3c2)cc1 (stereo not drawn) @ CapD inh: -0.24
Cc1cccn2c(/C=N/OC(=O)C3CC3)c(-c3ccc(Cl)cc3)nc12 @ CapD inh: 6.1
Cc1cc(C)n(S(=O)(=O)c2ccc(-c3cc(C(F)(F)F)n(C)n3)s2)n1 @ CapD inh: -0.48

(continued)
SMILES	CapD inh	AID504770
NC(=O)COC(=O)/C=C/c1ccc(I)o1	-0.17	0.1
CCCN(CCC)S(=O)(=O)c1ccc(C(=O)NNC(=O)C(NC(=O)Cc2c[nH]c3ccccc23)C(C)C)cc1 (stereo not drawn)	0.04	·
CNc1cc(C(=O)O)ccn1	·	-0.6
CN1CCN(C(c2ccncc2)c2ccc3cccnc3c2O)CC1 (stereo not drawn)	-2.4	-0.3
CCc1ccccc1N1CC(C(=O)OCCN2C(=O)c3ccccc3C2=O)CC1=O (stereo not drawn)	·	0.35
Cc1cc(C)c(C#N)c(SCc2ccccc2)n1	0.01	2
C=CCn1c(SCC(=O)N2CCCCC2C)nc2ccccc2c1=O (stereo not drawn)	·	1.6
O=C(OCc1ccccc1)Sc1nc2ccccc2o1	0.61	-0.25
O=C(O/N=C/c1ccc(OCc2ccccc2)cc1)c1ccc(C(F)(F)F)cc1	-0.33	·
CCOc1ccc(C(=O)NN2C(=O)c3ccccc3C2=O)cc1	·	2.1
CCOC(=O)C1=C(N)OC(C)=C(C(=O)OCc2ccccc2)C12C(=O)Nc1ccccc12 (stereo not drawn)	0.69	·
COc1ccccc1NC(=O)N(Cc1ccccc1)c1ccccn1	·	-0.4
O=c1c2c(N3CCOCC3)cc(N3CCOCC3)nc2n(-c2ccccc2)c(=O)n1-c1ccccc1	-1.3	1.5
COc1ccc(-c2ccc(-c3nc(-c4ccccc4)c(-c4ccccc4)[nH]3)o2)c([N+](=O)[O-])c1	0.77	·
O=C1CC(c2cccc(Cl)c2)c2cc(Br)c3ccccc3c2N1 (stereo not drawn)	-0.45	·
O=C(O)/C=C/c1nc(-c2ccccc2)n2ccccc12	26	-0.1
CC(=O)N1CCc2c(sc3nc(-c4cc5cc(Cl)ccc5oc4=O)[nH]c(=O)c23)C1	0.15	1.5
CCSCCOC(=O)C1=C(C)NC2=C(C(=O)CCC2)C1c1ccc(OC)c(OCc2ccccc2)c1 (stereo not drawn)	28	·
O=C(Nc1ccc(NC(=S)NCCc2ccccc2)cc1)c1ccccc1O	11	·
C=CCNC(=S)NN1CCN(C)CC1	·	-1.2

Entries from the list above that have a Cl atom:
SMILES	CapD inh	AID504770
O=C(NCCc1ccccc1)C1CCN(c2ncc(-c3ccc(Cl)cc3)cn2)CC1	1.1	·
Cc1cccn2c(/C=N/OC(=O)C3CC3)c(-c3ccc(Cl)cc3)nc12	6.1	·
N#CC1(C#N)C(c2ccc(Cl)cc2)C(C(=O)c2ccccc2)N2c3ccccc3C=CC21 (stereo not drawn)	6.5	·
Cc1nc(-c2ccncc2)nc(NCCNc2ncccc2C(F)(F)F)c1Cl	0.35	1.3
O=C1CC(c2cccc(Cl)c2)c2cc(Br)c3ccccc3c2N1 (stereo not drawn)	-0.45	·
CC(=O)N1CCc2c(sc3nc(-c4cc5cc(Cl)ccc5oc4=O)[nH]c(=O)c23)C1	0.15	1.5

Further structures
SMILES	CapD inh	AID504770
NC1CCN(c2ncccn2)CC1	·	-0.4
Cc1ccc(SCc2cn3ccsc3n2)cc1	0.36	0.25
Cc1ccc(-c2cc3c4c(C)n(C5CCCCC5)c(C)c4c(C)nn3c2)o1	3	-0.6
COc1cscc1C(=O)NNC(=O)OCCc1cccc(F)c1	0.43	·
O=c1[nH]cc(NC(=S)N2CCOCC2)c(=O)[nH]1	·	-0.25
CCCS(=O)(=O)NCc1ccc2[nH]c(C)cc2c1	0.62	-1
CCC(C)c1ccc(O)c(NC(=O)c2cccnc2)c1 (stereo not drawn)	3.9	-0.75
CCN(CC)c1ccc2cc(-c3nnc(-c4ccc([N+](=O)[O-])cc4)o3)c(=O)oc2c1	-0.12	·
CCOC(=O)c1c(NC(=O)C(C)OC(=O)c2ccc(-n3cnnn3)cc2)sc2c1CCCC2 (stereo not drawn)	·	-0.4
CC(C)(C)OC(=O)C(C)(C)Sc1nc(-c2ccccc2)c(-c2ccccc2)o1	1.3	·
COc1cc(C2C3=C(CCCC3=O)N(c3ccc([N+](=O)[O-])cc3C)C(=N)/C2=C(/O)c2ccc(C)cc2)cc(OC)c1OC (stereo not drawn)	1.3	·
O=C(OC1CCCCC1)c1c(F)c(F)c(F)c(F)c1F	0.51	-0.45
CCOC(=O)C1CCCN(CC(O)COc2ccc3ccccc3c2)C1 (stereo not drawn)	0.21	-0.5
O=c1c(Cc2ccc(Br)cc2)csc2ccccc12	-0.98	-0.45
Cc1onc(-c2ccccc2Cl)c1C(=O)NNC(=O)c1c(-c2ccccc2Cl)noc1C	0.2	·
CSc1nc(-c2ccco2)nn1C(=O)c1ccc(Cl)cc1	0.79	0.95
O=[N+]([O-])c1cc(Cl)c2c(c1)-c1ccccc1S(=O)(=O)N2	-0.81	·
Cc1cc(=O)n2[nH]c(-c3ccc(C(C)(C)C)cc3)cc2n1	-0.4	1.9
Cc1cc(C(F)(F)F)nc(SCC(=O)Nc2c(C)n(C)n(-c3ccccc3)c2=O)n1	·	1.7
COc1ccc(CNC(CO)c2ccccc2)c(OC)c1OC (stereo not drawn)	-0.68	-0.15
Cc1cc(C)c(S(=O)(=O)N2CCN(CCO)CC2)c(C)c1	0.075	1.1
Cc1cccc(NC(=S)N2CCCCC2C(N)=O)c1 (stereo not drawn)	·	0
CCCc1nnc(NC(=O)C(CC)Sc2nc(N)cc(=O)[nH]2)s1 (stereo not drawn)	·	3
Cc1ccc(Sc2nc(C)cc(C)c2S(=O)(=O)c2ccc(C)cc2)cc1	0.005	·
CC1(C)C2CCC1(CS(=O)(=O)N1CCC(C(=O)O)CC1)C(=O)C2 (stereo not drawn)	·	-0.95
CCC(=O)Nc1ccc(C(=O)O)cc1NC(=O)CC	-0.07	-0.1
O=C(OC1CCOC1=O)c1cn(-c2ccccc2)nc1-c1ccccc1 (stereo not drawn)	·	-0.5
O=C(c1ccc(Cl)cc1)c1ncc(C(F)(F)F)cc1N1CCCC1	-0.41	·
Brc1ccc(/C=N/n2cnnc2SCc2ccccc2)cc1	-0.29	-0.1
CCCCCCCc1c(COC)[nH]c(=S)[nH]c1=O	0.18	-0.5
CCCOc1ccc(-c2cc(C(=O)N3CC(C)CC(C)C3)c3ccccc3n2)cc1 (stereo not drawn)	38	·
CCC(C)S(=O)(=O)c1ccc(C(=O)Nc2ccc(Cl)cc2)cn1 (stereo not drawn)	0.7	·
CN(C1CCCCC1)S(=O)(=O)c1ccc(-n2cccn2)cc1	0.29	1.7
CC1(C)c2ssc(=S)c2-c2ccccc2N1C(=O)CSC1=NCCS1	-0.7	·
CN(CC(=O)N1CCCc2ccccc21)S(=O)(=O)c1ccc2c(c1)OCCO2	·	-0.2
Cn1nc(C(F)(F)F)c(-c2ccccc2)c1NC(=O)COCC(=O)O	-0.65	2.5
CCc1ccc(NC(=O)c2cccc3c2SCCC3=O)cc1	0.59	1.8
Cc1cc(C(=O)NNC(=O)c2cnn(-c3ccc([N+](=O)[O-])cc3)c2C(F)(F)F)nn1C	0.12	·
Cc1nc(/C(=N/O)C(N)=O)cs1	·	-0.6
COCCn1c(=O)[nH]c2cc(C(=O)OC)ccc2c1=O	0.97	-0.1

Some of these compounds in order of SMILES length, largest number first:
SMILES	CapD inh	AID504770
CCCOc1ccc(-c2cc(C(=O)N3CC(C)CC(C)C3)c3ccccc3n2)cc1 (stereo not drawn)	38	·
CC1(C)C2CCC1(CS(=O)(=O)N1CCC(C(=O)O)CC1)C(=O)C2 (stereo not drawn)	·	-0.95
Cc1cc(C)c(S(=O)(=O)N2CCN(CCO)CC2)c(C)c1	0.075	1.1
CCC(=O)Nc1ccc(C(=O)O)cc1NC(=O)CC	-0.07	-0.1

(next part)
SMILES	CapD inh	AID504770
Cn1c(C(=O)N2COCC2(C)C)cc2c(=O)n3ccccc3nc21	37	-0.1
CC(=O)c1ccc(NC(=O)CSc2nn3c(SCC(=O)Nc4ccc(C(C)=O)cc4)nnc3s2)cc1	-0.51	·
COC(=O)c1ccc(OCC2c3cc(OC)c(OC)cc3CCN2C(=O)c2ccc(Br)o2)cc1 (stereo not drawn)	0.35	0.85
CCOC(=O)c1noc(C)c1-c1csc(COc2cc(Cl)cc(Cl)c2)n1	10	1.6
O=C(O)C1CC2CCC(C1)C21SCCS1 (stereo not drawn)	·	-1.3
NS(=O)(=O)c1ccc(NC(=O)NC2CC(=O)N(c3ccc(Cl)cc3)C2)cc1 (stereo not drawn)	·	0.65
O=C1CCCc2nc(N3CCCCC3)sc21	-4.3*	-0.3
CC(C)(C)OC(=O)N1CC(Sc2nc3ccccc3[nH]2)CC1C(=O)O (stereo not drawn)	-0.33	·
CCC(=N\Nc1nc2ccccc2[nH]1)/C(CC)=N/Nc1nc2ccccc2[nH]1	·	2
CCOC(=O)c1cc(C#N)c(SC)nc1C	0.59	1.4
COc1ccc(CC(=O)Nc2nnc(C3CCCCC3)s2)cc1OC	-0.22	-0.5
CCc1cc2c(=O)n(Cc3ccco3)c(SC)nc2s1	·	-0.5
Cc1sc2nc(-c3ccco3)oc(=O)c2c1C	-0.14	·
Brc1ccc2[nH]c3c(Br)cc(Br)cc3c2c1	0.65	·
Cc1ccc(NC(=O)CCNS(=O)(=O)c2ccc3c(c2)CC(C)N3C(=O)C2CC2)cc1C (stereo not drawn)	-0.21	0.3
c1cncc(-c2nc(-c3ccc4ccccc4c3)cs2)c1	19	-0.6
Cc1ccccc1-n1c(SCC(=O)N(C(C)C)C(C)C)nnc1-c1cccnc1	·	-0.25
O=S(=O)(c1cccc(F)c1)N1CCN(C(c2ccc(F)cc2)c2ccc(F)cc2)CC1	-0.68	·
C/C=C(\C)C(=O)OC1c2c(ccc3ccc(=O)oc23)OC(C)(C)C1OC(C)=O (stereo not drawn)	·	-0.75
O=S(=O)(NCC1COc2ccccc2O1)c1cccs1 (stereo not drawn)	-0.52	-0.15

One compound at a time (already shown). Order of values: CapD inh	AID504770
COC(=O)c1ccc(OCC2c3cc(OC)c(OC)cc3CCN2C(=O)c2ccc(Br)o2)cc1 (stereo not drawn) reads 0.35	0.85
CCOC(=O)c1noc(C)c1-c1csc(COc2cc(Cl)cc(Cl)c2)n1 reads 10	1.6

Continued.
SMILES	CapD inh	AID504770
CCC(CC)c1nnc(NC(=O)c2c(OC)cccc2OC)s1	0.83	-0.05
CN(Cc1ccccc1)C(=O)COC(=O)c1ccc(Cl)cc1N	50	0.45
CC(NC(=O)c1ccco1)C(=O)O (stereo not drawn)	-0.34	-0.35
COc1ccc(-c2cc(=O)[nH]c(=S)[nH]2)cc1	-1.2	1.6
CCOC(=O)C(C(=O)N1CCN(C)CC1)C1CCCCC1 (stereo not drawn)	0.41	-0.3
O=C1c2ccccc2C(=O)C1(c1ccccc1)N1CCN(CCO)CC1	0.26	-0.4
C=CCN1C(=O)NC(=O)/C(=C/c2ccc(-c3ccc(Cl)c(C(=O)O)c3)o2)C1=O	18	·
COc1ccc(C(C)=NNC(=O)c2cc(Br)ccc2O)c(OC)c1	3.9	-0.25
Cc1noc(C)c1CSc1nc2c(c(-c3ccccc3)c1C#N)C(=O)CC(C)(C)C2	-0.13	-0.55
O=C(O)CN1C(=O)COc2cc(S(=O)(=O)N3CCCC3)ccc21	0.48	-0.25
COc1ccc(Cl)cc1NC(=O)C1CSC(c2ccncc2)=N1 (stereo not drawn)	·	-0.4
Cc1c(C(=O)Nc2ccccc2N2CCN(C)CC2)sc2nc3n(c(=O)c12)CCCCC3	0.005	-0.3
O=C(NCc1ccccc1)c1ccc(CN(c2ccccc2)S(=O)(=O)c2ccccc2)cc1	1.7	-0.75
